TDP1 inh – qHTS Assay for Inhibitors of Tyrosyl-DNA Phosphodiesterase (TDP1); Tyrosyl-DNA phosphodiesterase 1 (Homo sapiens), Q9NUW8; recombinant TDP1, AlphaScreen DNA substrate cleavage; Potency, µM (highest dose often 130 µM), inactives show at the top dose activity change, negative = inhibition, most hits filed as inhibitors; 0.28% of 350,000 active; AID 485290, 2010; further: nearly all actives have a fitted effect of over 40% in size
Target sequence (Q9NUW8 whole entry, looked up): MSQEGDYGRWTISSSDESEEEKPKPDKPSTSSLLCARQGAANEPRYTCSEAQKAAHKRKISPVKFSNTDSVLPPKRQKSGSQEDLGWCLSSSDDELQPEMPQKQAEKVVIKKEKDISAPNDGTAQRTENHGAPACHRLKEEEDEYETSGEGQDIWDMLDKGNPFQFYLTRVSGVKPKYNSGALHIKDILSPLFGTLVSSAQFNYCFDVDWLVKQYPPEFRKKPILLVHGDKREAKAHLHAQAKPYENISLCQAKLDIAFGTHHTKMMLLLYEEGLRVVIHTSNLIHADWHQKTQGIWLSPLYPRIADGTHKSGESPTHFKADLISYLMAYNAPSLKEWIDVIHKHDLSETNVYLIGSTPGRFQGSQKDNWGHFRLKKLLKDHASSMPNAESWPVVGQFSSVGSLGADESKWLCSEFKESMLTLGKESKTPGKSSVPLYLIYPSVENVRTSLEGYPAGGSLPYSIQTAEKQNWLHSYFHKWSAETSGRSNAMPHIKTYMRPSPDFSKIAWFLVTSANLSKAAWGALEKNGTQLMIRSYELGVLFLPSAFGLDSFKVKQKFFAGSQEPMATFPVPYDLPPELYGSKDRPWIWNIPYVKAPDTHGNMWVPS
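Tdp1 1 nM final; 15 min RT w/ cpd; substrate 15 nM, 5 min; beads 10 ug/ml, 10 min; AlphaScreen read. Neg ctrl: no enzyme.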
N370S GC – qHTS Assay for Inhibitors and Activators of N370S glucocerebrosidase as a Potential Chaperone Treatment of Gaucher Disease; 0.092% of 330,000 active; Potency, µM (titrated, usually from 59.4 µM), for inactives: at the top dose activity change, negative = inhibition, actives largely listed as inhibitors; N370S GC spleen homogenate, 4MU-glucoside fluorescence; Lysosomal acid glucosylceramidase (Homo sapiens), P04062;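 further: 0% = full enzyme activity and -100% = no enzyme basal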
An asterisk follows results filed as active; u = inconclusive; x = no result given; [ ] = dose if it differs, or a comment. The call rests on the fitted dose curve; in most records, active means well fitted curve in the direction sought with a large enough effect; inconclusive means small, poorly fitted or top-dose-only effect, or another doubt; inactive means no such curve, though single readings can be large; an effect the other way counts as inactive or inconclusive. Unless noted, on the % scale 0 is the no-effect control and ±100 the full control effect; potency means the concentration at half of the fitted maximal effect. A portion of the library, and most or all hits are left out here.

1. CCCCC(=O)NCCc1cc2ccc(OC)cc2[nH]c1=O
2. CN(c1ccccc1)c1nc(N)c([N+](=O)[O-])c(N2CCOCC2)n1
3. COc1ccc(C(=O)NC2CCN(C(=S)Nc3cc(C)ccc3C)CC2)cc1
4. COc1cccc(CCc2nnc(N)s2)c1
5. C=CCSc1ccccc1C(=O)Nc1ncn[nH]1
compound no.,1,2,3,4,5
TDP1 inh,0%,-1%,3%,x,x
N370S GC,-14%,-11%,17%,5%,-13%

6. CCCOC(=O)Cc1n[nH]c(=O)[nH]c1=O
7. CC(C)C(C(=O)NCC1CCCO1)N(Cc1ccccc1)C(=O)CNS(=O)(=O)c1ccccc1 (stereo unspecified)
8. CCN(CCCNC(=O)COc1cc(=O)n(C)c2ccccc12)c1ccccc1
9. Cc1cc(OC(=O)N2CCCCC2)cc(C)c1Cl
10. COc1ccc(-c2nc(-c3ccccn3)no2)cc1
compound no.,6,7,8,9,10
TDP1 inh,5%,0%,4%,-6%,-3%
N370S GC,6%,-11%,0%,-2%,-1%

11. CCC(=O)N1c2ccccc2CC1C(=O)N1CCN(c2cccc(OC)c2)CC1 (stereo unspecified)
12. O=C(NCC(=O)N(CC1CCCO1)C(C(=O)NC1CCCCC1)c1ccccc1)c1cccs1 (stereo unspecified)
13. COc1ccc(C(=O)Nc2nnc(-c3cccs3)s2)cc1
14. COc1ccc(C(=O)CSc2nnc(CN3CCCCC3)n2-c2ccc(F)cc2)cc1
15. O=C(C1=C[C@H](c2ccc3c(c2)OCO3)C[C@H](OCCCCO)O1)N1CCOCC1
compound no.,11,12,13,14,15
TDP1 inh,4%,6%,6%,2%,-5%
N370S GC,x,u,2%,-13%,8%

16. CCNC(=S)N1CCC(C(=O)c2ccc(Cl)cc2)CC1
17. O=C(CSc1nc2[nH]ncc2c(=O)[nH]1)Nc1ccccc1C(F)(F)F
18. Cc1cccc(-n2ccc(=O)c(C(=O)Nc3ccc(S(=O)(=O)Nc4nccc(C)n4)cc3)n2)c1
19. CN(CC(=O)OCC(=O)NC1CCCC1)S(=O)(=O)c1ccc(Cl)cc1
20. CCCSc1nc2ccccc2n1CC(=O)O
compound no.,16,17,18,19,20
TDP1 inh,x,0%,-4%,0%,x
N370S GC,-1%,-6%,2%,x,-8%

21. C/C(=N\NC(=O)c1cccc(C)c1)c1cccc(NC(=O)c2ccco2)c1
22. CCCc1nc2ccccc2n1CCOC
23. Cn1c(NCc2ccco2)nc2c1c(=O)n(Cc1ccc(Cl)c(Cl)c1)c(=O)n2C
24. CCc1nnc(NC(=O)CSc2nnc(-c3ccc(NS(=O)(=O)c4ccccc4)cc3)o2)s1
25. N#Cc1c(N)n(Cc2ccccc2)c(=O)c2cc([N+](=O)[O-])ccc12
compound no.,21,22,23,24,25
TDP1 inh,6%,-3%,3%,6%,x
N370S GC,8%,14%[12.8 µM],12%,-19%,-3%

26. S=c1[nH]ncn1/N=C/c1ccc(Br)cc1
27. CC(OCC(O)CN(C)CCOc1ccccc1)c1ccc(Cl)cc1 (stereo unspecified)
28. CCCCOC(=O)c1ccc(NC(=O)C(=O)NCc2ccco2)cc1
29. Cc1oncc1C(=O)NC(C)C
30. Cc1cc(C(=O)NCc2ccco2)cs1
compound no.,26,27,28,29,30
TDP1 inh,7%,-2%,5%,5%,2%
N370S GC,0%,-8%,-5%,0%,2%

31. O=C(NNC(=O)C12CC3CC(CC(Cl)(C3)C1)C2)c1csc(N2CCOCC2)n1
32. COc1ccccc1CNC(=O)COC(=O)C1CCN(S(=O)(=O)c2ccc(C)c(C)c2)CC1
33. Cc1ccc(Cn2c(=N)c(C(=O)NCc3ccco3)cc3c(=O)n4ccccc4nc32)cc1
34. COc1ccccc1CN1CC(C(=O)NCCn2nc(C)cc2C)CCC1=O (stereo unspecified)
35. COCCOc1ccc(C(F)(F)F)cc1NC(=O)CN1C(=O)NC(C)(c2ccc3c(c2)OCO3)C1=O (stereo unspecified)
compound no.,31,32,33,34,35
TDP1 inh,4%,0%,2%,1%,x
N370S GC,-9%,-4%,-11%,-13%,-1%

36. O=C(CN1C(=O)CSc2ncccc21)N1CCOCC1
37. COc1ccc(N2CSC3=C(C#N)C(c4cccs4)CC(=O)N3C2)cc1 (stereo unspecified)
38. COc1ccc(-c2noc(CCC(=O)Nc3ccc4c(c3)OCCO4)n2)cc1
39. O=S(=O)(Nc1cccc(S(=O)(=O)N2CCCCCC2)c1)c1ccc(F)cc1F
40. CCC1(C)Cc2c(sc3[nH]c(=O)[nH]c(=O)c23)CS1 (stereo unspecified)
compound no.,36,37,38,39,40
TDP1 inh,1%,-4%,0%,5%,2%
N370S GC,1%,10%,11%,x,25%

41. Cc1cc(C)nc(NS(=O)(=O)c2ccc(NC(=O)Cc3ccccc3F)cc2)n1
42. CC(Cc1ccccn1)NC(=O)CCc1nnc(C2CCCCC2)o1 (stereo unspecified)
43. CCN(CC)S(=O)(=O)c1ccc(S(=O)(=O)N2CCC(C(=O)NC3CCN(Cc4ccccc4)CC3)CC2)cc1
44. CC(C)NC(=O)COc1coc(CN2CCN(C(=O)c3ccco3)CC2)cc1=O
45. CCCCn1c(N)c(N(CCOC)C(=O)C2CCN(C(=O)c3ccc(Cl)cc3)CC2)c(=O)[nH]c1=O
compound no.,41,42,43,44,45
TDP1 inh,x,-3%,0%,-5%,-3%
N370S GC,-13%,2%,-12%,3%,-1%

46. CCN(CC)S(=O)(=O)c1cccc(-c2nnc(SCC(=O)NC)n2N)c1
47. Cc1ccnc(NC(=O)COC(=O)C2COc3ccccc3O2)n1 (stereo unspecified)
48. COc1cccc(C(=O)Nc2c(C)nn(-c3ccccc3)c2C)c1
49. O=C(NC1CC2CCCC(C1)N2C(=O)Nc1ccc(Cl)c(C(F)(F)F)c1)C1CC1 (stereo unspecified)
50. C=CCN(Cc1cc(OC)ccc1OC)S(=O)(=O)N(C)C
compound no.,46,47,48,49,50
TDP1 inh,4%,7%,5%,-6%,-1%
N370S GC,5%,5%,2%,4%[12.8 µM],23%

Single records, as listed above. Screens in order: TDP1 inh, N370S GC
CN(c1ccccc1)c1nc(N)c([N+](=O)[O-])c(N2CCOCC2)n1 as listed: -1%, -11%
O=C(NCC(=O)N(CC1CCCO1)C(C(=O)NC1CCCCC1)c1ccccc1)c1cccs1 (stereo unspecified) as listed: 6%, u
CCNC(=S)N1CCC(C(=O)c2ccc(Cl)cc2)CC1 as listed: x, -1%

Carrying on.
51. CN(C)C1=NCCN1CCc1ccccc1
52. CCn1c(NC)cc(=O)n(C)c1=O
53. COc1ccc(S(=O)(=O)N2CCC(C(=O)N[C@@H](C)C(=O)NCc3cccc(OC)c3)CC2)cc1
54. Cc1ccc2nc(SCC(=O)NC3CCCc4ccccc43)[nH]c2c1 (stereo unspecified)
55. O=C(NC(Cc1ccccc1)C(=O)O)/C(=C/c1ccc(Br)cc1)NC(=O)c1ccc(Br)o1 (stereo unspecified)
compound no.,51,52,53,54,55
TDP1 inh,-5%,2%,4%,1%,5%
N370S GC,-28%,-10%,2%,7%,1%

56. O=C(N/N=C/c1ccc(O)c([N+](=O)[O-])c1)c1ccncc1
57. CSCCC(NC(=O)c1ccco1)C(=O)N1CC=C(c2ccccc2)CC1 (stereo unspecified)
58. COc1ccc(CNCC(O)COc2ccc(C)cc2[N+](=O)[O-])cc1 (stereo unspecified)
59. Cc1ccc(NC(=O)CSc2ccc(-c3cccnc3)nn2)c(C)c1
60. CC(C)(C)OC(=O)NCCCC[C@H](NC(=O)c1[nH]cnc1C(=O)Nc1ccccc1)C(=O)OC(C)(C)C
compound no.,56,57,58,59,60
TDP1 inh,x,4%,3%,6%,11%
N370S GC,-6%,-6%,-9%,23%,6%

Among those listed so far, these have fluorine.
14. COc1ccc(C(=O)CSc2nnc(CN3CCCCC3)n2-c2ccc(F)cc2)cc1
17. O=C(CSc1nc2[nH]ncc2c(=O)[nH]1)Nc1ccccc1C(F)(F)F
35. COCCOc1ccc(C(F)(F)F)cc1NC(=O)CN1C(=O)NC(C)(c2ccc3c(c2)OCO3)C1=O (stereo unspecified)
39. O=S(=O)(Nc1cccc(S(=O)(=O)N2CCCCCC2)c1)c1ccc(F)cc1F
41. Cc1cc(C)nc(NS(=O)(=O)c2ccc(NC(=O)Cc3ccccc3F)cc2)n1
49. O=C(NC1CC2CCCC(C1)N2C(=O)Nc1ccc(Cl)c(C(F)(F)F)c1)C1CC1 (stereo unspecified)
compound no.,14,17,35,39,41,49
TDP1 inh,2%,0%,x,5%,x,-6%
N370S GC,-13%,-6%,-1%,x,-13%,4%[12.8 µM]

Continued.
61. NC(=O)CSc1ncnc2c1oc1ccccc12
62. COc1cc2c(cc1OC)C(C)=NC1(CCCCC1)C2
63. CC1CCCC(C)N1CCCNC(=O)c1ccc2nc(N3CCOCC3)sc2c1 (stereo unspecified)
64. COc1cccc(Cn2nnc3c(=O)[nH]c(C4CCCN(C(=O)c5ccc(C)cc5)C4)nc32)c1 (stereo unspecified)
65. Nc1nncn1C(=O)CCCOc1ccccc1
compound no.,61,62,63,64,65
TDP1 inh,0%,0%,x,7%,2%
N370S GC,-3%,1%,0%,x,0%

66. COc1ccc(CSc2cccc3cccnc23)cc1[N+](=O)[O-]
67. COc1ccc(NC(=O)c2ccccc2C)c(OC)c1
68. CC(C)(C)C1CCc2onc(C(=O)Nc3cccnc3)c2C1 (stereo unspecified)
69. O=C(NC1CCN(Cc2ccccc2)CC1)c1cc(S(=O)(=O)Nc2ccc(F)cc2)ccc1Cl
70. O=C(CN1C(=O)S/C(=C\C=C\c2ccccc2)C1=O)Nc1ccccc1C(=O)O
compound no.,66,67,68,69,70
TDP1 inh,5%,-4%,2%,0%,5%
N370S GC,4%,1%,5%,-12%,-4%

71. Cc1ccc(-c2nnc(N(C)C(=O)c3ccccn3)s2)cn1
72. COc1ccc(C2=Nn3c(nnc3-c3ccccn3)SC2)cc1
73. C=CCn1c(SCC(=O)NC2CCCCC2)nnc1C(C)NC(=O)c1cccs1 (stereo unspecified)
74. COc1cccc(N(C(=O)CNC(=O)c2ccco2)C(C(=O)NC2CCCCC2)c2cccnc2)c1 (stereo unspecified)
75. O=C(/C=C/c1ccc(F)cc1)NCCCn1ccnc1
compound no.,71,72,73,74,75
TDP1 inh,2%,5%,2%,2%[0.0935 µM],x
N370S GC,17%,-9%,4%,-1%,-6%

76. O=C(O)c1cc(Cl)c(Cl)cc1C(=O)N1CCOCC1
77. COc1ccc(C2(c3ccc(OC)cc3)NC(=O)N(CC(=O)N(C)c3ccccc3)C2=O)cc1
78. C=CCNC(=O)/C(=C/c1cccc([N+](=O)[O-])c1)NC(=O)c1ccccc1
79. Cc1ccc(NC(=O)c2cc(S(=O)(=O)N3CCCCC3)c[nH]2)cc1C
80. OCCOc1ccc(CN2CCCC(N3CCN(c4ccc(F)cc4)CC3)C2)cc1 (stereo unspecified)
compound no.,76,77,78,79,80
TDP1 inh,10%,0%,1%,x,x
N370S GC,5%,-9%,27%,-2%,-6%

81. CCSc1nnc(CNc2ccc(C)cc2)n1C
82. O=C(c1ccc(Cn2cc(Cl)cn2)cc1)N1CCN(c2ccccc2)CC1
83. COc1ccc(NC(=O)CCn2nc(C)cc2C)cc1
84. CNC(=S)NNC(=O)Cc1ccc(O)cc1
85. Cc1cccc(Nc2nc(-c3cccs3)cs2)n1
compound no.,81,82,83,84,85
TDP1 inh,0%,-1%,6%,3%,1%
N370S GC,-23%,-15%,-1%,-7%,7%

86. CC(=O)Nc1ccc(Nc2nc3c(S(=O)(=O)c4cccc(Cl)c4)nnn3c3ccsc23)cc1
87. CCCn1nc(NS(C)(=O)=O)c2cc3cccc(C)c3nc21
88. Cc1ccc(NC(=O)c2ccc(C)cc2)cc1
89. CC(=O)N1CCN(c2ccc(NC(=O)c3ccc(Br)o3)cc2Cl)CC1
90. Cc1ccc(C(=O)NCC(=O)O)cc1S(=O)(=O)N1CCCCC1
91. CN(CC(=O)Nc1cccc2ccccc12)C(=O)/C=C/c1cccs1
92. CCN(CC)c1ccc(NC(=O)C2CCCC2)cc1
compound no.,86,87,88,89,90,91,92
TDP1 inh,-3%,2%,-3%,0%,0%,0%,x
N370S GC,x,-17%,-4%,-18%,-19%,-4%,-7%
